STK33 kinase inh – blocks human STK33 kinase activity; Q9BYT3; 320,000 compounds, 0.073% hits; purified STK33, MBP phosphorylation, ADP-Glo luminescence; inhibition, % at 10 µM; AID 2661;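 active = inhibition at or above 25%, using the most active replicate where run in duplicate; inactive = inhibition below 25%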
Target sequence (Q9BYT3 whole entry, looked up): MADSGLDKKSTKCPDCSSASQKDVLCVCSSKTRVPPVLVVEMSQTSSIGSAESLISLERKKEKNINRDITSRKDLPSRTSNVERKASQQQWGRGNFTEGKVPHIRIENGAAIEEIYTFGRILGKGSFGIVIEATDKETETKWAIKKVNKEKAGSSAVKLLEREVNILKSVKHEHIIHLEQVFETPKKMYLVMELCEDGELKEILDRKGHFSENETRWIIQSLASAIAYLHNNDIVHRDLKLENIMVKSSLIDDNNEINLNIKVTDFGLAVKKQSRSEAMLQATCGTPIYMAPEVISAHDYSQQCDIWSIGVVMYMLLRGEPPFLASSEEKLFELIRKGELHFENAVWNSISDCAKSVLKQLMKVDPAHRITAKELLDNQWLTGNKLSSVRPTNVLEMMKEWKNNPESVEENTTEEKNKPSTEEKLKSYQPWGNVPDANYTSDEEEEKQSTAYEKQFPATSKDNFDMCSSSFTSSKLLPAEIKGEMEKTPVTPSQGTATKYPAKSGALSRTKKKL
Starred values were filed as active, the others as inactive.

Sample of the layout:
STK33 kinase inh | smiles
-1.3 | O=C(CN1C(=O)NC2(CCCC2)C1=O)Nc1ccc(Cl)cc1C(F)(F)F
-0.8 | Cc1ncc([N+](=O)[O-])n1CC(=O)Nc1ccc(Br)cc1
-1.1 | CCNc1nc(NCC)n2c(SCC(=O)N3CC4(C)CC3CC(C)(C)C4)nnc2n1 (configuration not stated)
0.0 | O=C1OCCC1Sc1nnc(-c2ccccc2Cl)n1Cc1ccccc1 (configuration not stated)
1.1 | O=C(Nc1ccccc1N1CCCCC1)c1ccc(F)c(S(=O)(=O)N2CCOCC2)c1
-0.8 | N#Cc1c(C(F)(F)F)cc(-c2ccco2)nc1SCc1ccccn1
1.0 | COc1cccc(N2C(=NC(=O)CCC3CCCC3)SC3CS(=O)(=O)CC32)c1 (configuration not stated)
0.1 | CCOC(=O)c1c(C)[nH]c(C(=O)Cn2nnc(-c3ccccc3Cl)n2)c1C
-4.0 | CSc1ccc(CNc2ccccc2)cc1
2.1 | CC(=O)N1c2ccc(S(=O)(=O)N3CCCC3C(=O)NCc3ccc(Cl)cc3)cc2CC1C (configuration not stated)
-3.3 | N/C(CN1CCCC1=O)=N\OC(=O)c1ccccc1Cl
-0.2 | COc1ccc(N/C=C/c2nc(SC)nnc2C)cc1
0.0 | CC(CCc1ccccc1)NC(=O)c1ccccc1F (configuration not stated)
0.4 | Clc1ccc(-c2cc(COc3ccccc3)no2)cc1Cl
0.5 | CN1/C(=C\C=C2/SC(=S)NC2=O)C(C)(C)c2ccccc21
0.2 | CS(=O)(=O)N(CCc1ccccc1)CC(=O)N1CCN(c2ccccc2)CC1
0.2 | CCOc1ccc(S(=O)(=O)NCc2cccnc2)cc1NC(=O)c1ccccc1F
-0.3 | CN(CC(=O)Nc1cccnc1)S(=O)(=O)c1ccccc1

All compounds of this part, from the start:
STK33 kinase inh | smiles
-1.3 | O=C(CN1C(=O)NC2(CCCC2)C1=O)Nc1ccc(Cl)cc1C(F)(F)F
-0.8 | Cc1ncc([N+](=O)[O-])n1CC(=O)Nc1ccc(Br)cc1
-1.1 | CCNc1nc(NCC)n2c(SCC(=O)N3CC4(C)CC3CC(C)(C)C4)nnc2n1 (configuration not stated)
0.0 | O=C1OCCC1Sc1nnc(-c2ccccc2Cl)n1Cc1ccccc1 (configuration not stated)
1.1 | O=C(Nc1ccccc1N1CCCCC1)c1ccc(F)c(S(=O)(=O)N2CCOCC2)c1
-0.8 | N#Cc1c(C(F)(F)F)cc(-c2ccco2)nc1SCc1ccccn1
1.0 | COc1cccc(N2C(=NC(=O)CCC3CCCC3)SC3CS(=O)(=O)CC32)c1 (configuration not stated)
0.1 | CCOC(=O)c1c(C)[nH]c(C(=O)Cn2nnc(-c3ccccc3Cl)n2)c1C
-4.0 | CSc1ccc(CNc2ccccc2)cc1
2.1 | CC(=O)N1c2ccc(S(=O)(=O)N3CCCC3C(=O)NCc3ccc(Cl)cc3)cc2CC1C (configuration not stated)
-3.3 | N/C(CN1CCCC1=O)=N\OC(=O)c1ccccc1Cl
-0.2 | COc1ccc(N/C=C/c2nc(SC)nnc2C)cc1
0.0 | CC(CCc1ccccc1)NC(=O)c1ccccc1F (configuration not stated)
0.4 | Clc1ccc(-c2cc(COc3ccccc3)no2)cc1Cl
0.5 | CN1/C(=C\C=C2/SC(=S)NC2=O)C(C)(C)c2ccccc21
0.2 | CS(=O)(=O)N(CCc1ccccc1)CC(=O)N1CCN(c2ccccc2)CC1
0.2 | CCOc1ccc(S(=O)(=O)NCc2cccnc2)cc1NC(=O)c1ccccc1F
-0.3 | CN(CC(=O)Nc1cccnc1)S(=O)(=O)c1ccccc1
-1.2 | [O-]/C(=C(\C(=S)Nc1cccc2ccccc12)[n+]1ccccc1)c1cccs1
1.7 | Cc1[nH]c2ccccc2c1/C=C(\C#N)C(=O)NC1CC1
0.8 | CC(C)c1nc(N2CCN(C(=O)c3ccco3)CC2)c2c3c(sc2n1)CCCC3
-0.3 | CN(C(=O)COC(=O)c1ccc([N+](=O)[O-])cc1Cl)C1CCCCC1
-0.1 | CC(C)(CO)NC(=O)C12CC3CC(CC(Br)(C3)C1)C2
-1.2 | Cc1ccc(S(=O)(=O)NNC(=O)C(=O)NNS(=O)(=O)c2ccc(C)cc2)cc1
-1.2 | Cc1cccc(C(=O)N2CCN(c3ccc(N4CCOCC4)nn3)CC2)c1
-1.7 | COc1ccc(C(=O)C2CCCN(S(=O)(=O)N(C)C)C2)c(C)c1 (configuration not stated)
0.4 | COc1ccc(NC(=S)Nc2ccc(OCc3ccccc3)cc2)cc1OC
0.0 | COc1ccc(/C=C(/NC(=O)c2cccc([N+](=O)[O-])c2)C(=O)O)cc1OC
-0.9 | O=C(NCC1CCCO1)C(c1cccs1)N(Cc1ccccc1Cl)C(=O)c1ccc(-c2ccccc2)[nH]1 (configuration not stated)
-0.6 | Cc1ccc(C2NC(c3ccc(C)cc3)C([N+](=O)[O-])C(C)(C)C2[N+](=O)[O-])cc1 (configuration not stated)
-0.5 | CCOC(=O)c1cc2cc3ccccc3cc2[nH]1
0.4 | CCOc1ccc(Br)cc1S(=O)(=O)Nc1cccc(S(=O)(=O)NC2=NCCC2)c1
-0.7 | CCc1ccccc1NC(=O)COC(=O)C1C2CC3OC(=O)C1C3C2 (configuration not stated)
-1.4 | O=C(c1ccccc1)c1c[nH]c(C(=O)NNc2cccc(Cl)n2)c1
-0.6 | C=CCn1cc(-c2cccc(C(F)(F)F)c2)cc(C#N)c1=O
-1.4 | CCOC(=O)C(NC(=O)NC1CCCCC1)(c1ccccc1)C(F)(F)F (configuration not stated)
-0.9 | COc1ccccc1N1CCN(C(=O)c2cc(-c3cccc(Cl)c3)on2)CC1
-3.4 | COc1cc(S(=O)(=O)NC2CCCCC2C)ccc1F (configuration not stated)
1.3 | Cc1nn(Cc2ccccc2)c(C)c1C(=O)NCCN1C(=O)S/C(=C\c2ccc(F)cc2)C1=O
-1.2 | CC(C)Nc1nc2n(c(=O)n1)CCN2C(C)C
-0.8 | O=C(NCCNCc1cccs1)c1ccccc1F
-0.6 | CNc1nc(NC#N)nc(SC)n1
-1.3 | CCc1ccc2[nH]cc(S(=O)(=O)c3ccc(C)c(C)c3)c(=O)c2c1
-2.5 | O=C(CCN1CCN(CCO)CC1)Nc1ccccc1
-1.3 | CCN(CC)c1ccc(NC(=S)NC(=O)Cc2ccccc2)cc1
-1.2 | CN(C(=O)CSc1nnc(-c2cccnc2)n1-c1ccccc1F)C1CCS(=O)(=O)C1 (configuration not stated)
-1.6 | CS(=O)(=O)N1CCC(C(=O)Nc2ccc(F)cc2F)CC1
-1.4 | O=C(c1cccs1)N1CCN(S(=O)(=O)c2cccs2)CC1
-0.4 | COc1ccc(N2C(=O)CCC2(C#N)c2ccc(OC)cc2)cc1 (configuration not stated)
-0.4 | O=C(Cc1cccs1)N1CCN=C1SCc1ccc(F)cc1
-2.4 | CCn1ncc([N+](=O)[O-])c1C(=O)Nc1c(C)nn(Cc2ccc(F)cc2)c1C
-0.8 | Cc1cc(C)n(S(=O)(=O)c2cc(C)c(C)cc2C)n1
-1.2 | CCOC(=O)CC(NS(=O)(=O)c1ccc(OC)c(C)c1)c1cccc([N+](=O)[O-])c1 (configuration not stated)
-0.2 | O=C(CNC(=O)c1ccc(Cl)cc1Cl)OCN1C(=O)c2ccccc2C1=O
4.4 | Cn1nccc1C(=O)Nc1ccc2c(c1)OCCO2
-0.5 | CCN(CC(=O)NCc1cccs1)C(=O)c1ccc(S(=O)(=O)Nc2cccc(C)c2C)cc1

Other structures follow.
STK33 kinase inh | smiles
-1.5 | CCN1CCN(CCCNC(=O)c2csc3c2CCCCC3)CC1
-0.3 | CC(C)c1onc(C(=O)NCc2cccs2)c1[N+](=O)[O-]
-1.7 | Nc1nc(=S)c2ncn(C3OC(CO)C(O)C3O)c2[nH]1 (configuration not stated)
-0.2 | O=C(CCN1C(=O)C2CC=CCC2C1=O)Nc1cc(C(F)(F)F)ccc1N1CCCC1 (configuration not stated)
-0.2 | CCc1cccc(NC(=O)CN2C(=O)NC3(CCCCCCC3)C2=O)c1
1.1 | CCN1CCN(CC(=O)Nc2nc3ccccc3s2)CC1
0.7 | Fc1ccc(-c2nnc(CSc3nnc(-c4ccc5c(c4)OCO5)o3)o2)cc1
-3.1 | CC(C)Nc1nc(NC(C)C)nc(N(C)N)n1
-1.4 | Clc1ccccc1CN(Cc1ccccc1)C(c1cccs1)c1nnnn1C1CCCC1 (configuration not stated)
0.1 | Cc1ccc2c(=O)c(CN3CCCCCC3)c(C)[nH]c2c1C
-0.4 | COc1cc(CCCN2C(=O)C(=O)NC[C@H]2Cc2cccc3ccccc23)cc(OC)c1OC
-1.7 | CC(C)CCNc1ncnc2c1nnn2Cc1ccccc1
-0.5 | COCCNC(=O)Cc1c(C)c2c(cc(C)c3c(C(C)(C)C)coc32)oc1=O
-0.3 | Cc1cc(NC(=O)OC2CCCCC2)ccc1[N+](=O)[O-]
-1.7 | Cc1cc(F)ccc1S(=O)(=O)Nc1ccccc1C(=O)Nc1ccccc1-c1nc2ccccc2[nH]1
-0.1 | Cc1cc(C)cc(N2C(=O)C3NN=C(C(=O)OCc4ccccc4)C3C2=O)c1 (configuration not stated)
-3.9 | CCN(CC)C(=O)CSc1nc2c(c(-c3cccnc3)c1C#N)CCCC2
-0.7 | O=C(Cc1n[nH]c(=O)c2ccccc12)N/N=C/c1cc2c(cc1Cl)OCO2
-0.1 | CSc1ccc2[nH]c(=O)cc(C)c2c1
0.2 | N#CC1CC(c2ccccc2)Nc2cc(Cl)ccc2N1 (configuration not stated)
-0.2 | Cc1[nH]c(=O)nc2c1CCC2
1.0 | CCN(CC)S(=O)(=O)c1ccc(OC)c(NC(=O)Cn2cnc3c2c(=O)n(C)c(=O)n3C)c1
0.9 | COc1cc(NS(=O)(=O)c2ccc(NC(=O)c3ccc(S(=O)(=O)N4CCCC4)cc3)cc2)ncn1
-0.3 | CNC(=O)c1ccsc1NC(=O)CCS(=O)(=O)c1ccc(F)cc1
0.7 | COc1ccc(/C=C(/NC(=O)c2ccccc2)C(=O)N2CCCC2)cc1OC
-0.3 | CCC(C)N(C)C1CCN(C(=S)Nc2cccc(OC)c2)CC1 (configuration not stated)
-2.9 | COc1ccc(C(C)=O)cc1COc1cccnc1[N+](=O)[O-]
-2.3 | COc1ccc(C(=O)CN2C3=NCCCN3c3ccccc32)cc1OC
1.1 | O=C(NCc1ccco1)c1ccc2c(=O)n(CC3CCCO3)c(=S)[nH]c2c1 (configuration not stated)
-0.3 | CCn1ncc(/C=N/N=C2\CCC3C4CCc5cc(O)ccc5C4CCC23C)c1C (configuration not stated)
-1.3 | COc1ccc(CCNC(=O)CCn2c(=O)c3cccn3c3cccnc32)cc1OC
-1.7 | CCOc1ccc(N2C(=O)CC(Sc3nccc(C)n3)C2=O)cc1 (configuration not stated)
-2.7 | CSc1nc2sc3c(c2c(=O)[nH]1)CCCC3
0.2 | O=C(Nc1ccccn1)C1CCN(S(=O)(=O)c2ccc(Cl)cc2)CC1
-0.6 | O=C(c1ccc(OCC2CCCO2)cc1)N1CCN(c2ccccc2)CC1 (configuration not stated)
0.6 | Cc1ccc(CN(CC(=O)N/N=C/c2ccccc2[N+](=O)[O-])S(=O)(=O)c2ccc(C)cc2)cc1
-0.3 | CC(C)N1CC(COc2ccc(Br)cc2)OC1=O (configuration not stated)
-1.2 | CCCC1C(=O)Nc2ccccc2N1C(=O)c1cccc(C)c1 (configuration not stated)
0.1 | COc1cc(C(=O)Nc2ccc(Nc3ccccc3)cc2)cc(OC)c1OC
-0.5 | CNC(=O)C12CCC(C)(c3nc4cc(C)c(C)cc4nc31)C2(C)C (configuration not stated)
0.6 | O=C(Nc1ccc(Cl)cc1)N(Cc1nc2ccccc2c(=O)[nH]1)Cc1cccs1
-1.9 | Cc1ccc(-c2csc3ncnc(Oc4ccc5c(C)cc(=O)oc5c4)c23)cc1
-0.6 | Cc1coc2c(C)c3oc(=O)c(CCC(=O)NCCN4CCOCC4)c(C)c3cc12
0.5 | O=C(NCC(c1cccnc1)N1CCN(c2ccccc2F)CC1)C1CCCCC1 (configuration not stated)
0.4 | O=C(CN1C(=O)C2C3CC(C(Br)C3Br)C2C1=O)OCC(=O)c1cccc([N+](=O)[O-])c1 (configuration not stated)
-0.5 | Cc1ccc(CSCC(=O)N2CCN(Cc3ccc4c(c3)OCO4)CC2)cc1
2.1 | COc1cc(OC)c(NS(=O)(=O)c2cc3[nH]c(=O)c(=O)[nH]c3cc2C)cc1Cl
-0.2 | CC(=O)Nc1cccc(NC(=O)CSc2nc3c(c(=O)n(C)c(=O)n3C)n2C)c1

Taken from above.
Reading for COc1cc(OC)c(NS(=O)(=O)c2cc3[nH]c(=O)c(=O)[nH]c3cc2C)cc1Cl in STK33 kinase inh: 2.1
Reading for O=C(NCC(c1cccnc1)N1CCN(c2ccccc2F)CC1)C1CCCCC1 (configuration not stated) in STK33 kinase inh: 0.5

Additional compounds.
STK33 kinase inh | smiles
-2.2 | O=C(CN(c1ccc(Br)cc1)S(=O)(=O)c1ccc(Cl)c([N+](=O)[O-])c1)NCCc1ccccc1
1.5 | COc1cc(NC(=O)CCc2nnc3ccc(N4CCN(C)CC4)nn23)cc(OC)c1
-4.3 | O=C(COc1ccc(Cl)cc1[N+](=O)[O-])N1CCCCC1
-0.2 | C=CCOC(=O)COc1ccc2c(C)c(C)c(=O)oc2c1
-1.7 | CCOC(=O)C(C)Sc1nnc(NC(=O)c2cccc([N+](=O)[O-])c2C)s1 (configuration not stated)
-0.5 | Cc1ccccc1-c1nc(CN2CCC(C(=O)NC3CCCCC3)CC2)c(C)o1
-2.3 | O=C(c1ccc2c(c1)OCO2)N(CC1CCCO1)C1(C(=O)NC2CCCC2)CCCCC1 (configuration not stated)
-0.2 | O=C(COC(=O)CCN1C(=O)c2ccccc2C1=O)Nc1ccc(S(=O)(=O)N2CCCC2)cc1
-0.7 | O=C(CCC(=O)OCc1cccc([N+](=O)[O-])c1)Nc1ccc(F)cc1
-0.8 | O=C(CNC(=O)c1ccco1)NCC(=O)OCc1cccc(Cl)c1
-2.2 | CCC(=O)NC(=S)Nc1ccc(N2CCOCC2)cc1
-1.8 | COc1cccc(CNC(=O)CCS(=O)(=O)c2ccc3c(c2)CC(C)N3C(=O)C2CC2)c1 (configuration not stated)
-0.6 | CC1CCCCN1S(=O)(=O)c1ccc(C(=O)Nc2ccccc2-c2nc3ccccc3s2)cc1 (configuration not stated)

This is a subset, and most or all hits are left out here.
